Arbovirus anti = arbovirus infection inhibition. inhibition, % at 10 µM. 200,000 compounds, 0.37% hits. AID 1251. arbovirus infection cell-based antiviral screen;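 active = inhibition from about 30%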;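 note: bluetongue infection of BSR cells; cell survival read as ATP light after 72 h; 0% = infected wells without compound and 100% = uninfected wells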
Mtb H37Rv = M. tuberculosis H37Rv growth inhibitors, H37Rv strain (AID 1626); M. tuberculosis H37Rv growth inhibition; higher % means a stronger effect; 220,000 compounds, 0.95% hits; inhibition, % at 10 µM; hits with a dose series show IC50 in µM;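 active = confirmed in a dose series; inconclusive = inhibition above 80% but not taken into the dose series; inactive = below 80% or under 30% at every dose of the series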;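 note: bacteria incubated seven days before Alamar blue readout; 0% = bacteria only wells and 100% = bacteria with antibiotic wells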
Mtb bLac sens = beta-lactam sensitization of Mtb H37Rv. M. tuberculosis H37Rv growth with meropenem, percent inhibition; hits of this screen are not shown here. inhibition, % at 25 µM. 330,000 compounds, 0.27% hits. AID 434955;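 active = about 74% or more and at least 40 points above the plate without the antibiotic, then above 30% in a dose series; inconclusive = first-round hits that could not be retested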;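 note: growth measured after seven days incubation then overnight dye step; 0% = bacteria only wells and 100% = bacteria with antibiotic; twin plates without the antibiotic show which effects depend on it; some results filed as inactive read as strong as hits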
YopH inh = inhibitors of Yersinia enterocolitica YopH tyrosine phosphatase | inhibition, %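 (about 10 µM by stock and volumes)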 | 140,000 compounds, 0.16% hits | fluorescence Ex485/Em525;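 active = inhibition of 50% or more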;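 note: controls were vehicle for no effect and minimum signal wells for full effect; inactives centre near -20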
RecA splice inh = blocks M. tuberculosis RecA intein splicing; P9WHJ3; cell-free RecA intein splicing, fluorescence; inhibition, %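 (about 9 µM by stock and volumes)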; 290,000 compounds, 0.75% hits; AID 2221; in the data active = inhibition above about 30%; inconclusive = no clear call, values can overlap the other calls;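 note: 0% = vehicle wells and 100% = reference inhibitor control wells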
Target sequence (P9WHJ3 whole entry, looked up, canonical isoform): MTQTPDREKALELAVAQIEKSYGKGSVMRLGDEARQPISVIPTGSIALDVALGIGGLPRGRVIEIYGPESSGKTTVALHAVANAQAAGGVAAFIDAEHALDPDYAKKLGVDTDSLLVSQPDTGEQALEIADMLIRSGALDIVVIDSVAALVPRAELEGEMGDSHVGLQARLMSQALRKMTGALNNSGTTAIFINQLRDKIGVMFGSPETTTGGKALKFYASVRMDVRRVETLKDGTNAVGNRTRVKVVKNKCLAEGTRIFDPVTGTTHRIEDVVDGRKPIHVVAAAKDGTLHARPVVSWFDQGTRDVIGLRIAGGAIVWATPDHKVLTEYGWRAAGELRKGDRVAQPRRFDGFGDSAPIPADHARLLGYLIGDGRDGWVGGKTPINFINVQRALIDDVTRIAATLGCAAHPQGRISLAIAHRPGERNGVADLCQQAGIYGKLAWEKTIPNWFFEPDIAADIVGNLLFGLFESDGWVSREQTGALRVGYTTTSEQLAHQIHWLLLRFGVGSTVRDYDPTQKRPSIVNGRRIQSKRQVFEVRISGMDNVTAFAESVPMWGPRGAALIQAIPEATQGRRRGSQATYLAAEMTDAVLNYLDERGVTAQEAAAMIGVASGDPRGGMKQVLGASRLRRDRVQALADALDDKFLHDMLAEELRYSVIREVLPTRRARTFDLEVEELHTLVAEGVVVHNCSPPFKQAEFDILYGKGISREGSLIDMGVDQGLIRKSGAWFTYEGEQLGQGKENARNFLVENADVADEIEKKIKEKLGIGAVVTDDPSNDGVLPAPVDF
Arbovirus anti repeat = also measured in Arbovirus anti; calls as there; inhibition, %; measured here: 10K subset replicate screen; many hits read low in the repeat;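 first of two repeat runs on a subset; 0% = infected and 100% = uninfected wells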
* hit, by the source's call; ? = inconclusive; / = not tested or not shown.

SMILES	Arbovirus anti	Mtb H37Rv	Mtb bLac sens	YopH inh	RecA splice inh	others
O=C(Nc1cccc2c1CCCC2)c1ccc(F)cc1	/	/	58.6	/	-0.7
CC(=O)N1CC(C)Sc2ccc(S(=O)(=O)NCCc3cccc(C)c3)cc21 (configuration not stated)	/	/	-0.1	/	2.2
O=c1[nH]c(SCc2nc3c(cnn3-c3ccccc3)c(=O)[nH]2)nc2ccccc12	9.5	-9.1%	/	-35.3	/
O=C1c2ccccc2-c2c1cccc2C(=O)N1CCCCC1	5.8	-1.9%	35.3	-8.4	1.6
Cc1cc2c(cc1C)N(Cc1ccc(Cl)cc1)C1=NCCCN12	/	/	2.9	/	1.8
O=C(CC(c1ccco1)C1CCCCC1=O)c1ccco1 (configuration not stated)	9.6	-3.8%	6.5	-13.9	0.4
COc1ccc(N(CC(=O)NCCSCc2c(F)cccc2Cl)S(C)(=O)=O)cc1OC	-0.2	-0.1%	-11.4	3.0	1.1
CCCCOc1ccc(CN2CCSCC2)cc1	/	/	-11.2	/	-0.4
Cc1nn(C)c(C)c1NS(=O)(=O)c1ccc(N2CCCC2=O)cc1	-13.3	-3.8%	-2.6	/	-1.3
O=C1CC(CSc2ccc(Cl)cc2)=NN1	/	-2.9%	9.9	/	90.9*
O=C(Nc1ncc(Cc2cccc(C(F)(F)F)c2)s1)c1ccc(-c2cccc([N+](=O)[O-])c2)o1	4.5	?	97.0	-28.6	0.0
COc1cccc(/C=N/NC(=O)CO/N=C(\C)c2cccs2)c1OC	-1.3	-3.2%	-2.1	-8.8	0.1
CCCCn1c(O)c(/C(C)=N/NC(=O)Nc2ccccc2)c(=O)[nH]c1=O	/	-7.5%	0.6	/	-0.4
Cc1ccc(SC(=O)COc2ccccc2C)cc1	-5.9	-6.5%	-8.3	-12.5	22.1
Cc1cc(C(F)(F)F)nc2c(Cl)c(C(C)(C)C)nn12	/	-2.1%	10.5	/	/
O=C(NCc1nc2ccccc2[nH]1)C1=C[C@H](c2ccccc2)C[C@H](OCCCCO)O1	/	-5.5%	1.1	/	3.4
O=C(CCCn1cc([N+](=O)[O-])cn1)Nc1cccnc1	/	-1.3%	-6.7	/	-4.5
Cc1csc(NC(=O)[C@@H]2CCCN2C(=O)c2cccs2)n1	18.6	1.9%	-0.1	/	0.3
O=C(CCNC(=O)c1ccc(Cl)cc1)Nc1ccncc1	/	/	3.0	/	-5.5
O=C(COc1cc2oc(=O)c3c(c2cc1Cl)CCC3)NCc1ccccn1	/	/	3.5	/	0.4
O=C(O)C1CCCCC1C(=O)Nc1cc(Cl)ccc1Cl (configuration not stated)	10.9	-2.8%	13.8	-33.1	1.2
Cc1ccc(-c2nnc3sc(-c4ccncc4)nn23)cc1	-5.8	-6.0%	1.6	-31.8	-0.8
C#CCOCCOCCOCCNc1nc(N2CCN(C(=O)[C@H]([C@@H](C)CC)n3cc([C@@H](N)CO)nn3)CC2)nc(N2CCN(C(=O)[C@H](Cc3cc4ccccc4[nH]3)n3cc([C@@H](N)Cc4ccc(O)cc4)nn3)CC2)n1	/	/	78.5	/	-0.3
C=CCSc1nccc(=O)[nH]1	2.9	1.6%	4.8	-4.7	0.6
CCC1(C)Cc2c(sc3nc(SC)n(Cc4ccccc4)c(=O)c23)CO1 (configuration not stated)	-13.0	3.8%	7.3	-0.4	0.7

Later entries:
SMILES	Arbovirus anti	Mtb H37Rv	Mtb bLac sens	YopH inh	RecA splice inh	others
Cc1ccc(NC(=O)CSCC(=O)NCc2ccco2)cc1	/	/	-3.7	/	-0.3
Cc1cc(C(C)(C)C)oc1C(=O)Nc1ccc(CC(=O)O)cc1	5.1	-2.4%	1.6	-35.0	2.9	Arbovirus anti repeat=2.8
CSCCC(NS(=O)(=O)/C=C/c1ccccc1)C(=O)NCCc1ccc(S(N)(=O)=O)cc1 (configuration not stated)	/	-13.2%	38.5	/	1.2
CCOC(=O)C1=C(c2ccccc2)NC(=O)NC1c1ccc(OC)c(OC)c1 (configuration not stated)	21.7	-0.3%	1.8	/	12.6
COc1c(O)cccc1[C@@H](O)C1CCN(CCc2ccc(F)cc2)CC1	/	-2.3%	0.5	/	0.8
O=C(Nc1sc2c(c1C(=O)NCc1ccco1)CCCC2)c1ccc2c(c1)OCO2	14.4	5.3%	-1.7	-19.8	1.5
NS(=O)(=O)c1ccc(NC(=S)N2CCN(Cc3ccc4c(c3)OCO4)CC2)cc1	5.5	-9.4%	-7.2	/	-1.6
Cc1ccc(CN2CCC(NC(=O)c3ccccc3)CC2)cc1	/	/	-0.4	/	-4.4
CC(=O)c1c(C)[nH]c(C(=O)OCc2cccc(Cl)c2)c1C	-1.4	11.1%	10.7	/	9.8
Cc1cc(O)c(N)c(C)c1Cl	-0.2	0.8%	-0.9	/	-3.1
C=CCn1c(=O)c2ccccc2n2c(=S)[nH]nc12	/	/	1.7	/	-0.9
CCN(CC)c1ccc(/C=N/NC(=O)c2cc(C)nc3ccccc23)cc1	/	0.0%	8.2	/	-1.3
COc1ccc(N2CCN(Cc3nc4c(c(=O)n(C)c(=O)n4C)n3CCc3ccccc3)CC2)cc1	-4.9	4.8%	5.8	-35.0	-2.3
CC(=O)N1Cc2ccccc2CC1C(=O)NCc1ccccc1F (configuration not stated)	/	/	5.8	/	1.7
CC1CCCN(CCCNC(=O)C2CCC(CNS(=O)(=O)c3cccc4nsnc34)CC2)C1 (configuration not stated)	/	/	-3.4	/	-4.6
COC(=O)c1ccc(Cn2cc([N+](=O)[O-])cn2)cc1	/	-6.8%	0.1	/	-0.9
CCN(C(=O)COC(=O)CNS(=O)(=O)c1ccc2ccccc2c1)C1CCCCC1	/	/	33.1	/	1.0
COc1ccc(-c2nc(N)n(C(=O)c3cccs3)n2)cc1	4.8	-8.4%	6.2	/	5.8
COc1ccc(-n2c(SC)nnc2-c2c[nH]c3ccccc23)cc1	-1.8	-1.6%	-3.8	/	-3.2
O=S(=O)(c1ccc(Br)cc1)N1CCCC1c1nc2ccccc2s1 (configuration not stated)	24.8	1.8%	5.8	-42.1	13.7
CC1(C)CC2(CCO1)NCCN1C(=O)CSC12 (configuration not stated)	2.8	3.1%	-7.9	-24.2	-1.4
Cc1ccc(N(C)C(=O)c2ccc(CNc3c(N4CCC(C)CC4)c(=O)c3=O)cc2)cc1	/	0.2%	-6.9	/	1.9
O=C(CCN1C(=O)/C(=C\c2ccc(F)cc2)SC1=S)Nc1ccccc1	/	/	-1.8	/	-2.3
O=C(NCC1CCCO1)c1ccc(COCC(F)(F)C(F)F)cc1 (configuration not stated)	1.2	1.8%	3.5	5.5	0.0
CCOC(=O)C1(CC2CC2)CCN(S(=O)(=O)C[C@]23CC[C@H](CC2=O)C3(C)C)CC1	6.5	/	-0.4	/	1.2

Next results:
SMILES	Arbovirus anti	Mtb H37Rv	Mtb bLac sens	YopH inh	RecA splice inh	others
COC(=O)C1CN(C(=O)COc2ccccc2)c2ccccc2O1 (configuration not stated)	/	/	5.0	/	-0.6
CCN(CCCNC(=O)CN1C(=O)COc2ccc(S(=O)(=O)N3CCC(C)CC3)cc21)Cc1ccccc1	/	/	1.4	/	0.6
S=c1[nH]nc(-c2ccc3ccccc3n2)n1-c1ccc2ncccc2c1	-0.7	9.4%	-0.3	-10.5	4.2
O=C(COC(=O)c1cccc([N+](=O)[O-])c1)c1ccc2c(c1)OCO2	/	/	73.0	/	0.1
CN1CCCN(S(=O)(=O)c2ccc(Cl)c(Cl)c2)CC1	-17.8	0.6%	/	/	-3.3
Cc1ccc(S(=O)(=O)N2CCN(C(=O)c3sccc3C)CC2)cc1	/	/	-5.4	/	-1.3
CN(C)N(C)C(=O)C(O)(c1ccccc1)c1ccccc1	0.4	0.1%	1.7	/	0.1
CN(CC(=O)Nc1ccc(F)cc1)C(=O)CCc1ccccc1	/	/	-1.8	/	-0.5
Fc1ccc(CSc2nnc(-c3ccncc3)o2)cc1	-20.6	9.0%	4.6	/	4.0
COc1cc2nc(SCc3ccc(F)cc3)n(Cc3cccs3)c(=N)c2cc1OC	-4.0	8.6%	5.4	-51.9	-0.6
COc1ccc(C(=S)NCS(=O)(=O)c2ccc(C)cc2)cc1	2.2	20.1%	32.5	-22.1	2.4
CCCNC(=S)NCc1ccc(Cl)cc1	2.8	2.3%	-12.5	-23.9	6.7
O=C(O)CC1OCC=C2CN3CCC45c6ccccc6NC4C1C2CC35 (configuration not stated)	/	-9.0%	0.1	/	-0.4
O=C(CCc1nc2sc3c(c2c(=O)[nH]1)CCCC3)NCCc1ccc(F)cc1	/	/	-6.1	/	-3.8
Cc1cc(C)nc(N2CCCC(C(=O)NCc3ccccc3)C2)n1 (configuration not stated)	0.1	-10.5%	-6.2	-13.2	-0.6
CCN1CCN(C(=O)c2cc3cc(Cl)ccc3[nH]2)CC1	/	/	?	/	1.2
CC(=O)c1ccc(NC(=O)c2cccs2)cc1	1.2	10.5%	-1.1	-16.6	-0.1
COc1ccc(OC)c2[nH]c(=O)c(CCNS(=O)(=O)c3ccccc3)cc12	0.9	/	-2.6	-5.9	-2.5
COC(=O)c1sc(OC)cc1OCc1ccc(C)cc1	-3.1	-1.7%	-14.2	-67.8	0.9
COc1cccc(OCc2nc3c4cnn(-c5ccccc5)c4ncn3n2)c1	-14.4	-9.6%	?	6.8	0.3
CCc1ccc(N(CC(=O)Nc2ccccc2C(=O)N2CCOCC2)S(C)(=O)=O)cc1	-0.5	-2.7%	0.3	-24.1	-1.5
O=C(Nc1ccccn1)c1ccc2ccccc2c1O	/	/	-0.3	/	-8.0
C/C(=N\N=C\c1ccccc1)c1nnn(-c2nonc2N)c1C	-4.4	-8.3%	?	-19.6	-0.1
COc1ccc2c(c1)CCc1c(C(=O)NCCN3CCOCC3)noc1-2	-2.3	-1.0%	-1.9	-14.6	0.5
CCN(Cc1ccccc1)c1ccc(/C=N/N=C(N)N)cc1	-31.0	5.5µM*	85.6	-0.5	13.0

An excerpt from above in order of SMILES length, falling.
SMILES	Arbovirus anti	Mtb H37Rv	Mtb bLac sens	YopH inh	RecA splice inh	others
NS(=O)(=O)c1ccc(NC(=S)N2CCN(Cc3ccc4c(c3)OCO4)CC2)cc1	5.5	-9.4%	-7.2	/	-1.6
O=C(O)CC1OCC=C2CN3CCC45c6ccccc6NC4C1C2CC35 (configuration not stated)	/	-9.0%	0.1	/	-0.4
Cc1csc(NC(=O)[C@@H]2CCCN2C(=O)c2cccs2)n1	18.6	1.9%	-0.1	/	0.3
C/C(=N\N=C\c1ccccc1)c1nnn(-c2nonc2N)c1C	-4.4	-8.3%	?	-19.6	-0.1
COC(=O)C1CN(C(=O)COc2ccccc2)c2ccccc2O1 (configuration not stated)	/	/	5.0	/	-0.6
CN1CCCN(S(=O)(=O)c2ccc(Cl)c(Cl)c2)CC1	-17.8	0.6%	/	/	-3.3
O=C1c2ccccc2-c2c1cccc2C(=O)N1CCCCC1	5.8	-1.9%	35.3	-8.4	1.6

(continued)
SMILES	Arbovirus anti	Mtb H37Rv	Mtb bLac sens	YopH inh	RecA splice inh	others
CCn1c(SCC(=O)c2ccc3c(c2)OCCO3)nnc1C(C)C	7.2	-5.2%	-5.3	-29.3	/
CC(C)c1nnc(NC(=O)C2CCCO2)s1 (configuration not stated)	2.5	-5.1%	7.8	/	-2.1
CC1CCCC(NC(=O)COC(=O)COc2ccccc2Cl)C1C (configuration not stated)	13.8	-6.6%	8.5	/	-0.6
CCN1CCN(CC(=O)Nc2ccc(OC(F)(F)F)cc2)CC1	/	/	9.4	/	-2.0
COc1ccc(S(=O)(=O)Nc2cc3c(C(C)=O)c(C)oc3c3ccccc23)cc1	-7.7	-5.6%	-1.2	-23.2	3.6
OC(COCc1ccc(Cl)cc1)CN1CCN(CC(O)COCc2ccc(Cl)cc2)CC1 (configuration not stated)	-39.9	8.7%	14.3	-80.0	-1.1
COc1cc(/C=C/C(=O)OCC(=O)c2c[nH]c3ccccc23)ccc1OC(F)F	1.9	5.0%	-2.4	-1.4	3.4
CC(=O)NC(CC(=O)O)c1ccc([N+](=O)[O-])cc1 (configuration not stated)	/	-2.3%	-7.1	/	-2.8
CC(C)OCCCNC(=S)NNC(=O)c1ccc(Cl)c(Cl)c1	15.1	11.3%	6.3	/	1.5
COc1ccc(-c2cc3ncnc(Cl)c3s2)cc1	/	/	51.3	/	3.1
Cc1ccccc1NS(=O)(=O)c1ccc(C)c(C(=O)N2CCOCC2)c1	/	/	?	/	2.8
CCC1CCCCN1CCCNC(=O)c1ccc2nc(N3CCC(C)CC3)sc2c1 (configuration not stated)	/	/	5.6	/	1.2
O=C(CCN1CCN(Cc2ccccc2)CC1)NNC(=O)Cc1ccc(Cl)c(Cl)c1	-0.8	-1.8%	-3.1	-33.3	1.0
COc1ccccc1CN1CCCCC1c1cccnc1 (configuration not stated)	13.9	-0.3%	-2.8	-19.7	0.4
Cc1ccc(-c2nnc(SCC(=O)Nc3ccc4c(c3)oc3ccccc34)n2C)c(Cl)c1	-3.1	0.5%	-3.2	-13.2	-0.7

High-throughput results from PubChem BioAssay.

These rows are one share of the data (hit frequency here may not be typical).
